# E coli growth: blocks Escherichia coli growth | actives 0.21% (n = 330,000) | OD600 absorbance (concentration not given with the values) | OD600, 23 h; stronger effect = lower value;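 active = OD600 absorbance below the run mean of sample wells minus 3.6 SD, in any replicate, cut at about 0.56 in these data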;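 also: stock transfer was 300 nL into about 60 µL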
# UCH37 DUB inh: inhibitors of human deubiquitinating enzyme UCH37; purified proteasome/UCH37, Ub-AMC cleavage fluorescence; inhibition, % (test concentration not listed); actives 0.33% (n = 330,000); Q9Y5K5;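 active = mean of two replicates above 20%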;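 also: 0% = compound-free wells with enzyme and 100% = wells lacking proteasome; stock transfer was 100 nL into about 20 µL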
#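 Assay system: Proteasome-bound UCH37. Buffer or medium: pH 7.4 Tris-HCl (50 mM) with ovalbumin, ATP-MgCl2, DTT. Incubation: 30 min preincubation with enzyme, 25 min cleavage at room temperature. Measured by: fluorescence, ex 355 nm, em 460 nm. Read-out basis: percent inhibition. Control set: wells without proteasome as full block, compound-free enzyme plus substrate as uninhibited.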
# rRNA inh HTS: inhibitors of bacterial rRNA selective over humanized ribosomes | E. coli WT GFP vs humanized-ribosome RFP mutants, fluorescence, 24 h; stronger effect = lower value; DMSO median 0, no signal -100 | GFP signal change (wild-type ribosome), % (test concentration not listed) | actives 1.6% (n = 350,000);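 active = significant combined selectivity score with lowered wild-type GFP, culture density cut under 30%, mutant RFP and density less affected; inactive = any of these conditions unmet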; also: one replicate is shown; some compounds called inactive have numbers as strong as hits
# ALR inh: blocks human ALR sulfhydryl oxidase activity; inhibition, % (test concentration not listed); purified ALR, DTT oxidation, H2O2 HRP-luminol luminescence; actives 3.8% (n = 290,000); AID 485317;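 active = mean and each replicate at 75% or more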;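 also: stock transfer was 7.5 nL into about 7.5 µL; 0% = neutral wells and 100% = wells with inactivated enzyme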
# Target sequence (P55789 whole entry, looked up): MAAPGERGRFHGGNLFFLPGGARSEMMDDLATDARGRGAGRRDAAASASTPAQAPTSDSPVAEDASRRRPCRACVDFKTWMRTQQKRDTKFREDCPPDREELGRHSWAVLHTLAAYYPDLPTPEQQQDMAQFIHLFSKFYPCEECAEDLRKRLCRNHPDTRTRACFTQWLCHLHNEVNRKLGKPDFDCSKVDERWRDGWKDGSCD
# FGF22 binding: binders of recombinant human FGF22 by thermal shift; Q9HCT0; AID 651658; actives 1.5% (n = 340,000); SYPRO orange fluorescence; percent of sucrose octasulfate shift, DMSO zero; calls only at 9.99 µM;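 active = melting point raised past a set limit in the mean and every replicate; three in four hits are not shown here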
# Target sequence (Q9HCT0 whole entry, looked up): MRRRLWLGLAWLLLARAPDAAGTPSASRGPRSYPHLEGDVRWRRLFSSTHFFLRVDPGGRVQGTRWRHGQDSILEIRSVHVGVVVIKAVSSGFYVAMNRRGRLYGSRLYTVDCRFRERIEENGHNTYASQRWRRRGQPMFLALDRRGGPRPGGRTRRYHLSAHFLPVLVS
# HNF4A DNA FP: change in binding of human HNF4 alpha to DNA. P41235. HNF4a-FITC DNA binding, fluorescence polarization, 1 h. activity change, % at 10 µM. actives 0.3% (n = 360,000). AID 1224865; in the data active = activity change above about 30%, passing the limit was not always enough;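 also: controls were the assay level and a saturating level of protein; the project sought stronger binding though the title names inhibitors; some compounds called inactive have numbers as strong as hits; positive values seem to mean higher polarization but the record does not say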
# Target sequence (P41235 whole entry, looked up): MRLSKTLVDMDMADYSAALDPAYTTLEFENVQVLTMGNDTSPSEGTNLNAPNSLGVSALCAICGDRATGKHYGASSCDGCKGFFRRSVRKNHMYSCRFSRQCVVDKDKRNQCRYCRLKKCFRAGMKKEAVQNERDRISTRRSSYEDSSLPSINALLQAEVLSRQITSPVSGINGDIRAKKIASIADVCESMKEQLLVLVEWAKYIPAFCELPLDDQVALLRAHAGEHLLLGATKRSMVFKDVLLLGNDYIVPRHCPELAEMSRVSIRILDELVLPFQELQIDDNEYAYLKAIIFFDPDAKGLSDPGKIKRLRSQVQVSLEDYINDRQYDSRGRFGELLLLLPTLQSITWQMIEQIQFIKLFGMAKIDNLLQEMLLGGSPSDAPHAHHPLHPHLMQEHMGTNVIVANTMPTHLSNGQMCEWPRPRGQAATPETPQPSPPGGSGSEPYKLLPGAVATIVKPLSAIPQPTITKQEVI
# B2AR ag: agonists of human beta-2 adrenergic receptor inducing internalization; P07550; Am2.2-beta2AR cells, FAP receptor internalization, flow cytometry; reference of the scale not given here; AID 504454; response, % (concentration not given with the values); actives 0.43% (n = 340,000);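 active = response above a set limit, near 3 SD of response in nonfluorescent compounds, cut at about 42% in these data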;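 also: stock transfer was 100 nL into about 11 µL; a reference agonist was the positive control; negative values mostly stem from fluorescent compounds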
# rRNA inh HTS OD600: recorded beside rRNA inh HTS, whose call it bears; OD600 change, %; measured here: OD600 growth;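 optical density of the mix in the first replicate; 0 = DMSO median and -100 = no signal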
# rRNA inh HTS RFP: recorded beside rRNA inh HTS, whose call it bears; RFP signal change, %; measured here: RFP humanized mutant strains;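 first replicate; 0 = DMSO median and -100 = no signal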
# * marks the source's active call; other numbers are inactive results; i = inactive; · = no result given; & = joins results of further samples.
SMILES,E coli growth,UCH37 DUB inh,rRNA inh HTS,rRNA inh HTS OD600,rRNA inh HTS RFP,ALR inh,FGF22 binding,HNF4A DNA FP,B2AR ag
Cc1cc(C2=NNC(=NCCc3ccccc3)SC2)c(C)n1CC1CCCO1 (stereo unspecified),0.64,1.8,1,2,0.9,-2,i,7.7,-10
O=C(Cn1cnc2ccccc2c1=O)NNC(=O)c1cccc([N+](=O)[O-])c1,0.71,3.5,0,10,-2.0,-1,i,-0.3,-2
C#CCNC(=O)C1=C[C@@H](c2ccc3c(c2)OCO3)C[C@@H](OCCCCO)O1,·,-0.9,6,2,0.8,-13,i,1.0,-4
CC(C)(C)C(=O)Nc1ccnn1C1CCN(C(=O)c2ccc(Cl)cc2F)CC1,0.65,0.4,13,17,3.5,-10,i,3.2,-1
COc1ccccc1CNC(=O)C(=O)NCC1OCCCN1S(=O)(=O)c1cccs1 (stereo unspecified),0.69,5.4,-5,-2,0.2,-2,i,-0.3,-14
CC(=O)c1c(C)n(-c2cccc(Cl)c2)c2ccc(O)cc12,0.67,2.5,-1,-1,2.3,-3,i,-5.3,3
Cc1cc(C)n(-c2ccc3nnc(C)n3n2)n1,0.72,-9.1,3,-9,-1.7,-1,i,2.0,16
CCC(=O)c1ccc(OC(=O)C2CCN(C3=NS(=O)(=O)c4ccccc43)CC2)cc1,0.64,1.3,5,17,1.1,0,i,0.7,0
COc1ccc(S(=O)(=O)N(C)C[C@@H]2Oc3ccc(NS(C)(=O)=O)cc3C(=O)N([C@@H](C)CO)C[C@H]2C)cc1,·,0.9,2&2,1&2,0.0&0.8,-2,i,1.8,5
O=C(Nc1ccnn1C1CCN(Cc2ccc(CO)o2)CC1)c1ccccc1Cl,0.7,-2.6,10,8,1.6,-2,i,4.5,-3
CC(=O)c1ccccc1OCC(O)CN1CCN(c2ccccn2)CC1 (stereo unspecified),0.6,1.3,4,10,-0.3,2,i,2.7,-12
CC(=O)Oc1cc(C(=O)OCC(=O)NC23CC4CC(CC(C4)C2)C3)cc(OC(C)=O)c1OC(C)=O,0.7,3.3,-34,-46,-6.9,·,i,-16,16
COc1ccc(-c2oc(=O)c3cc(OC)c(OC)cc3c2C#C[C@]2(O)CC[C@H]3[C@@H]4CCc5cc(OC)ccc5[C@H]4CC[C@@]32C)cc1,·,-31,13,13,12,-1,i,2.0,-3
COc1cc(NS(=O)(=O)c2ccc(F)cc2)c(C(=O)O)cc1OC,0.75,4.5,·,·,·,-5,·,1.8,2
O=C(NN1C(=O)C2C3C=CC(O3)C2C1=O)c1cccc(Br)c1 (stereo unspecified),0.68,-2.6,4,-2,-1.1,-9,·,-4.2,0
Cc1ccc(C(=O)OCC(=O)c2ccccc2)cc1,0.68,3.8,4,7,-4.2,2,i,1.9,1
COCC(C)n1c(SCC(=O)NC(=O)NC2CCCC2)nc2ccccc2c1=O (stereo unspecified),0.7,4.7,·,·,·,-4,i,-2.1,-14
COc1ccccc1NC(=O)C(C)NC(c1ccccc1)c1ccccc1 (stereo unspecified),0.73,-0.3,3,5,-1.0,-1,i,-4.6,9
Cc1cccc(NC(=O)CCC2CCN(Cc3nccs3)CC2)c1,0.69,1.0,7,2,0.8,2,i,-5.8,-9
CC(C)CCn1c(SCC(=O)Nc2ccccc2C(F)(F)F)nc2nccnc2c1=O,0.66,1.2,6,10,1.2,-7,i,1.0,-2
CCc1ccc(-c2nn(Cc3ccccc3)cc2C(=O)NCC2CCCO2)cc1 (stereo unspecified),0.71,1.3,-6,-14,6.4,1,i,2.5,16
O=c1[nH]snc1-c1c(Cl)cccc1Cl,0.69,2.9,·,·,·,-12,i,1.7,-1
CSc1nc2ccc(NS(=O)(=O)c3ccc4c(c3)OCCO4)cc2s1,0.69,-0.7,·,·,·,-2,·,0.9,0
Cc1cccc(N2CCN(C(=O)Cc3ccc(-n4c(=O)[nH]c5ccsc5c4=O)cc3)CC2)c1C,0.69,3.5,-8,-12,0.1,0,i,-0.2,-4
O=C(Nc1ccc(F)cc1)C(c1ccccc1)N1CCN(CC(=O)N2CCCC2)CC1 (stereo unspecified),0.7,0.8,2,11,-1.4,·,i,-4.4,-5
Cc1ccc(NCCC#N)cc1C,0.68,0.0,-19,-29,0.7,-6,i,-3.1,1
Clc1ccc(C2=NOC(c3nnc(-c4ccccc4)o3)C2)cc1 (stereo unspecified),0.66,2.9,8,17,0.3,1,i,-5.0,-3
O=C(Nc1ccc2nc(-c3ccco3)c(-c3ccco3)nc2c1)N1CCN(c2ccccn2)CC1,0.69,-6.8,·,·,·,·,·,-51,16
Cc1coc2c(C)c3oc(=O)c(CCC(=O)NCc4ccccn4)c(C)c3cc12,0.72,-28,·,·,·,42,i,1.4,18
Cc1oc(-c2ccccc2)cc1C(=O)Nc1cccc2ccccc12,0.71,2.0,·,·,·,-7,·,-0.2,1
CCOC(=O)CCc1c(C)c2ccc(OC3CCCCC3=O)c(C)c2oc1=O (stereo unspecified),0.67,-186,0,7,2.4,-1,i,-1.3,3
COc1ccc(OC(=O)COc2cc(C)ccc2C)cc1,·,·,5,7,-1.1,11,i,1.6,-4
CSC1=N/C(=C\c2c(F)cccc2Cl)C(=O)S1,0.69,1.7,·,·,·,3,·,2.1,2
O=C(/C=C1\NC2(CCCC2)Cc2ccccc21)C(=O)N/N=C/c1ccc(O)c(O)c1,·,·,-21*,-12*,-1.3*,35,i,-6.2,17
CC(C)(C)NS(=O)(=O)c1ccc(C(=O)Nc2ccc3c(c2)OCO3)cc1,0.69,0.6,-13,-13,-3.5,-7,·,-0.6,5
C/C(=N\NC(=O)COc1ccc([N+](=O)[O-])cc1)c1ccco1,·,·,14,11,5.4,·,i,-1.5,-5
CCOC(=O)n1cnc2nc(N)nc(SC)c21,·,·,12,14,3.6,·,i,-0.4,-7
COc1ccc(N(CC(=O)Nc2ccc(Cc3ccncc3)cc2)S(=O)(=O)c2ccccc2)cc1,0.67,0.5,2,-20,7.8,·,i,0.0,-6
COc1ccc(NC(=O)CSc2nnc(CNc3ccc(C)cc3)n2C)cc1,0.63,3.2,10,14,1.0,3,i,-4.5,2
CC(C)c1ccc(N(C)C(=O)Cc2c(C(=O)O)n(C)c3ccccc23)cc1,0.68,3.9,-7,-14,-4.9,72,i,0.6,0
Nc1c(C(=O)c2ccc(Cl)cc2)sc2nc3c(cc12)CCC3,0.72,-4.9,7,-9,0.7,-3,i,-2.9,-17
COc1cc(/C=C2/SC(=S)N(CCC(=O)Nc3ccccc3)C2=O)cc(OC)c1OC,0.69,9.5,7,8,0.5,3,i,11,12
CCNC(=O)C(Cc1ccccc1)NC(=O)OCc1ccccc1 (stereo unspecified),0.66,1.0,-4,0,-1.9,-1,i,0.6,-2
COc1cc(CCC(=O)OCC(=O)Nc2ccccc2F)cc(OC)c1OC,0.67,4.6,4,14,-0.5,-9,i,-1.4,-1
Cc1ccc(-c2nnn(CC(=O)Nc3cccc4c3CCCC4)n2)o1,0.74,0.5,·,·,·,-5,·,5.8,-6
Cc1ccc(-n2c(Cc3cccn3C)nnc2SCC(=O)NC2CCCCC2)cc1,0.62,1.3,·,·,·,6,·,-2.3,9
CC(Oc1cc2oc(=O)c3c(c2cc1Cl)CCCC3)C(=O)NCC1CCC(C(=O)O)CC1 (stereo unspecified),0.69,-46,-14,-14,-2.4,-1,i,5.8,-5
Cc1cc(S(=O)(=O)N2CCOCC2)ccc1OCC(=O)Nc1cccc(C(F)(F)F)c1,0.73,1.0,5,1,-2.5,0,i,-4.6,7
COc1ccc(CCNS(=O)(=O)c2c(C)nc3scc(C)n3c2=O)cc1OC,0.69,2.8,5,8,-2.2,-1,i,1.8,9
S=c1nc(-c2ccccc2)n(CCCn2ccnc2)c2c1CCCC2,0.72,15,5,5,1.1,-22,i,1.8,3

# (listing goes on)
SMILES,E coli growth,UCH37 DUB inh,rRNA inh HTS,rRNA inh HTS OD600,rRNA inh HTS RFP,ALR inh,FGF22 binding,HNF4A DNA FP,B2AR ag
CC(C)CN(C(=O)Cn1c(=O)cnc2ccccc21)C1CCS(=O)(=O)C1 (stereo unspecified),0.7,-11,4,6,-1.7,-4,i,1.4,-2
Cc1ccccc1C(=O)NCCNC(=O)c1ccco1,0.62,1.5,4,6,-2.3,-1,i,-0.1,-4
O=C(CCc1nc(-c2ccc(Cl)cc2)no1)NCC1CCCO1 (stereo unspecified),0.71,2.8,5,-6,-15,·,i,-1.9,5
COc1ccc(N2CCN(S(=O)(=O)c3cccc4cccnc34)CC2)cc1,0.74,7.0,2,-6,-5.4,78*,i,1.6,-3
O=C(CSc1ncnc2c1oc1ccccc12)Nc1nc2ccccc2s1,0.72,1.6,4,6,-3.8,96*,i,-1.7,-5
CN(C1CCCCC1)S(=O)(=O)c1ccc(Cl)c(C(=O)O)c1,0.68,0.8,·,·,·,2,·,-0.2,4
CCNS(=O)(=O)c1ccc(CCC(=O)NCc2ccncc2)cc1,0.63,-0.5,6,14,2.7,-5,i,-1.6,3
C[C@@H]1CN(C2CCN(Cc3nc(CC4CC4)no3)CC2)C[C@H](C)O1,0.68,1.5,12,15,1.5,0,i,-0.5,2
Cc1ccc(S(=O)(=O)NC2CC(C)(C)N(O)C(C)(C)C2)cc1,0.7,2.2,10,2,0.3,·,i,1.2,6
COc1cc(-c2nnn(CC(=O)NC3CCS(=O)(=O)C3)n2)ccc1OCc1ccccc1 (stereo unspecified),0.72,-0.7,·,·,·,12,·,1.8,4
COc1cc(NC(=O)CCCSc2nc(-c3ccco3)cc(C(F)(F)F)n2)cc(OC)c1OC,0.76,0.0,·,·,·,-9,·,2.7,-6
N=C1C(c2ccccc2)=C(O)CN1c1ccccc1N1CCOCC1,0.7,7.6,·,·,·,25,·,-3.4,-6
CCn1c(COc2ccc3c(c2)OCO3)nnc1SCC(=O)O,0.76,2.3,·,·,·,·,·,-5.0,4
C=C1C(=O)O[C@@H]2[C@H]1[C@@H](OC(=O)/C(C)=C/C)C/C(C)=C\C(=O)/C=C(\C)[C@@H]2O,·,·,6,15,2.4,52,i,-2.5,17
O=C(NCc1ccccn1)c1cc(-c2ccc(Cl)cc2)oc1C(F)(F)F,0.61,7.4,-20,-17,-1.2,·,i,3.0,2
COc1ccc(N2CCN(C(C)C(=O)N3CC(C)OC(C)C3)CC2)cc1 (stereo unspecified),0.66,2.1,6,-1,3.4,39,i,0.3,-1

# From PubChem BioAssay

# A portion of the library; rates above refer to the full screens.
